Bioassay records as filed in PubChem BioAssay.
Beta cell apopt: beta cell apoptosis inhibition | INS-1E cytokine-induced death, ATP luminescence, 48 h; percent of positive-control rescue, neutral wells zero | protection from apoptosis, % (test concentration not listed) | AID 435005 | hit rate 0.8% among 300,000;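 active = all replicates at 75% or more, or half of them and the mean; inconclusive = half reach 75% but not the mean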;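 note: 0% = cytokine-treated negative control wells and 100% = positive control rescue; higher means more ATP so stronger rescue from cytokine killing; wells of about 40 µL received 100 nL stock; the first replicate is given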
Calb FLC: C. albicans growth modulation with fluconazole; C. albicans CaCi-2 (fluconazole-resistant clinical isolate) + fluconazole, Alamar Blue growth, 48 h; growth inhibition, % (test concentration not listed); hit rate 0.57% among 300,000; AID 1979;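 active = most replicates above 75%; inconclusive = exactly half above 75%; inactive = most below 75%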;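 note: all wells also contain fluconazole at 8 µg/ml as a sub-toxic cotreatment; 0% = median of DMSO wells and 100% = median of geldanamycin control wells; wells of about 8 µL received 7.5 nL stock; the first replicate is given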
Beta2AR agonist: agonists of human beta-2 adrenergic receptor inducing internalization | Am2.2-beta2AR cells, FAP receptor internalization, flow cytometry; reference of the scale not given here | response, % (no concentration beside the values) | P07550 | hit rate 0.43% among 340,000;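 active = response above a set limit, near 3 SD of response in nonfluorescent compounds, cut at about 42% in these data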;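 note: stock transfer was 100 nL into about 11 µL; a reference agonist was the positive control; negative values mostly stem from fluorescent compounds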
Target sequence (P07550 whole entry, looked up): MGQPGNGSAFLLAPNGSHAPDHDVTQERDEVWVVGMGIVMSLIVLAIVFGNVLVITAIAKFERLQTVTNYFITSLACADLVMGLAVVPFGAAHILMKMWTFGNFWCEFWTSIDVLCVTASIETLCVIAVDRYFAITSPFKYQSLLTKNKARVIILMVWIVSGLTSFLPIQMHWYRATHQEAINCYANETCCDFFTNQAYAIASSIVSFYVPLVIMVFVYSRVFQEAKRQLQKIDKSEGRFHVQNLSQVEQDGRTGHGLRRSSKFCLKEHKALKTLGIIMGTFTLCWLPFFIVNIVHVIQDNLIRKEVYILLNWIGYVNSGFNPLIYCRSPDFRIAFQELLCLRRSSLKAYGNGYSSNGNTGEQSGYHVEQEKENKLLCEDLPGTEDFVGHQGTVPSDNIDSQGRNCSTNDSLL
ALR inh: human ALR oxidase inhibition via reduced H2O2; purified ALR, DTT oxidation, H2O2 HRP-luminol luminescence; inhibition, % (concentration not given with the values); P55789; hit rate 3.8% among 290,000;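 active = mean and each replicate at 75% or more; inconclusive = only one of the two met; inactive = neither met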;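 note: stock transfer was 7.5 nL into about 7.5 µL; 0% = neutral wells and 100% = wells with inactivated enzyme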
Target sequence (P55789 whole entry, looked up): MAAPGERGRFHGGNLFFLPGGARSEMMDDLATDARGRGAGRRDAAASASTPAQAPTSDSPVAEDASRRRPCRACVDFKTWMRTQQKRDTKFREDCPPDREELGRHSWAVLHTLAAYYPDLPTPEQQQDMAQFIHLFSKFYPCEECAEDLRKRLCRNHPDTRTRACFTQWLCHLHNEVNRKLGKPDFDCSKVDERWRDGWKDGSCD
LANA-H2A inh: blocks KSHV LANA binding to histone H2A/H2B. cell-free LANA-H2A/H2B peptide, fluorescence polarization. inhibition, % (concentration not given with the values). hit rate 0.6% among 320,000. Q9QR71. AID 2629; in the data active = inhibition mostly above about 10%, no sharp cut-off; inactive = mostly below about 6.7%;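 note: stock transfer was 7.5 nL into about 10 µL; 0% = median of vehicle wells and 100% = median of positive control wells; one replicate is shown; the record names a cut of 25% in any replicate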
T cruzi repl: T. cruzi replication inhibition | T. cruzi beta-gal in NIH3T3, luminescence, 90 h | inhibition, % (no concentration beside the values) | hit rate 1.4% among 300,000 | AID 1885;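 active = mean inhibition across valid replicates above about 55%, limit read from the data; inconclusive = mean below that limit but half or more replicates reach it; inactive = mean below it, under half of replicates reach it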;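 note: signal also drops with host cell toxicity which is not excluded here; 0% = plate median of DMSO wells and 100% = zero luminescence signal; higher percent means less beta-gal luminescence so fewer parasites; stock transfer was 50 nL into about 50 µL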
Ecoli rRNA inh: selective bacterial rRNA inhibition in E. coli. E. coli WT GFP vs humanized-ribosome RFP mutants, fluorescence, 24 h; hits give low values; DMSO median 0, no signal -100. GFP signal change (wild-type ribosome), % (no concentration beside the values). hit rate 1.6% among 350,000. AID 720706;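 active = significant combined selectivity score with lowered wild-type GFP, culture density cut under 30%, mutant RFP and density less affected; inactive = any of these conditions unmet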; note: one replicate is shown; some compounds called inactive have numbers as strong as hits
Bfl-1 A1 inh: inhibitors of the anti-apoptotic protein A1, read as caspase activation; MEF A1-2A-BIM cells, Caspase-Glo 3/7 luminescence, 3 h; percent of clofoctol response, vehicle zero; AID 2462; hit rate 0.066% among 330,000; caspase activation, % (test concentration not listed);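 active = over half of replicate activation scores above 10%, or exactly half above 10 with the replicate mean above 10; inconclusive = replicate mean below 10 yet half the replicates above 10; inactive = over half of replicates below 10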;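 note: wells of about 30 µL received 50 nL stock; many hits fall short of the cut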
Ecoli rRNA inh OD600: recorded beside Ecoli rRNA inh, whose call it bears; OD600 change, %; measured here: OD600 growth;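 optical density of the mix in the first replicate; 0 = DMSO median and -100 = no signal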
Ecoli rRNA inh RFP: also measured in Ecoli rRNA inh; calls as there; RFP signal change, %; measured here: RFP humanized mutant strains;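 first replicate; 0 = DMSO median and -100 = no signal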
Active calls of the source: *; ? = inconclusive; nt = no result given.

SMILES	Beta cell apopt	Calb FLC	Beta2AR agonist	ALR inh	LANA-H2A inh	T cruzi repl	Ecoli rRNA inh	Ecoli rRNA inh OD600	Ecoli rRNA inh RFP	Bfl-1 A1 inh
CCN(CC)c1ccc(NC(=O)c2cc(Cl)ccc2OC)cc1	5	-5	8	98*	1.2	7	nt	nt	nt	2.7
CSc1sc(C)cc1C=O	-1	?	0	0	0.8	-9	3	4	-2.3	0.6
Cc1cccc(NC(=S)Nc2ccc(Br)cc2)c1	-3	0	11	-1	8.3	1	nt	nt	nt	0.6
CN(CC(=O)NCCc1ccc(S(N)(=O)=O)cc1)CC(=O)Nc1ccccc1Cl	-5	nt	2	-4	3.6	nt	8	14	-2.0	1.8
CC1CCCC(C)N1NC(=O)c1ccc(Cl)c(S(N)(=O)=O)c1 (centres undefined)	nt	nt	0	nt	-12	-3	6	23	-3.5	nt
COc1cc(CNCc2cccs2)cc(Br)c1OC	4	7	-9	-13	5.5	10	nt	nt	nt	0.8
CCN1CCN(CCCNc2ncnc3nc[nH]c23)CC1	1	1	3	-5	-1.5	-2	12	12	-0.4	-0.2
O=C(O)CC(NC(=O)c1sc2ccccc2c1Cl)c1ccc(OC2CCCC2)cc1 (centres undefined)	0	64	-15	15	-0.9	2	5	8	-3.9	-0.3
COc1ccc2nc(SCC(=O)NCc3ccccc3)[nH]c2c1	-6	0	5	-6	1.7	1	-13	-8	-0.6	-0.7
CCOC(=O)c1ccccc1NC(=O)Cc1ccc(OC)c(S(=O)(=O)N2CCOCC2)c1	-4	nt	-5	-2	2.2	nt	-8	-17	-1.6	0.3
Cc1noc(NS(=O)(=O)c2ccc(NC(=O)CCC3CCCCC3)cc2)c1C	-1	19	1	3	-0.9	-35	nt	nt	nt	-1.4
Cc1cc(N2CCOCC2)nc(-c2ccccc2O)n1	-5	-12	6	3	-7.8	6	nt	nt	nt	-0.5
CC(CNS(=O)(=O)c1ccccc1)(c1ccccc1)N1CCOCC1 (centres undefined)	0	-2	2	-3	2.9	4	4	14	-0.6	1.0
COc1ccccc1/C=C/C=NC1C(=O)N(c2ccccc2)[N+](C)=C1C (centres undefined)	-9	-3	-1	nt	-1.1	-25	15	19	3.6	2.1
CC(C)Oc1ccc(/C(O)=C2/C(=O)C(=O)N(CCN(C)C)C2c2ccco2)cc1 (centres undefined)	-4	-2	-4	24	-0.7	1	nt	nt	nt	-1.2
Cn1c(N)c(S(=O)(=O)N2CCN(C(=O)c3ccco3)CC2)c(=O)n(C)c1=O	-14	-17	-2	-2	-7.2	-1	2	4	2.0	-0.5
CC(OC(=O)CCc1nc2ccccc2c(=O)[nH]1)C(=O)NC1CCCC1 (centres undefined)	1	-3	10	-8	-0.5	-39	7	-7	0.4	1.7
O=C(NCCc1ccccc1)c1cc(=O)[nH]c2ccccc12	-1	-5	0	1	-2.8	-13	17	18	1.5	0.6
Clc1nc(-c2ccccc2)cc(-c2ccccc2)n1	3	-4	-2	nt	4.6	20	21	21	-2.3	0.3
Cc1ccc(-c2cc(C(=O)Nc3cccnc3)[nH]n2)c(O)c1C	0	-4	3	nt	1.2	-3	-30	-29	-10.0	-7.1
CC(CNC(=O)Cn1cnc2c(OCc3ccccc3)ncnc21)c1ccccc1 (centres undefined)	1	nt	0	-1	-492	nt	9	15	2.7	0.0
N#Cc1cccc(NC(=O)Cc2ccsc2)c1	-7	-8	-9	-7	1.0	-14	0	3	0.1	0.2
O=C(O)C1(c2cccc(Cl)c2)CCC1	-4	7	6	-2	4.9	-21	nt	nt	nt	0.5
O=C(CC(c1ccccc1)(c1ccccc1)c1ccccc1)N[C@@H](Cc1ccc(O)cc1)C(=O)O	-9	-3	-4	19	-2.2	-19	-8	-4	7.0	0.5
COc1ccc(Cl)cc1C(=O)NC(=S)Nc1ccccc1N1CCOCC1	6	nt	0	-4	2.6	24	-7	0	-3.9	0.4
Cn1c(=O)c([N+](=O)[O-])c(Oc2ccccc2)c2ccccc21	nt	-4	10	nt	nt	-9	14	4	3.5	nt
COc1ccc(-c2nc(CS(=O)CC(=O)NCCc3ccc(C)cc3)c(C)o2)cc1OC (centres undefined)	-8	8	-4	99*	-3.2	11	0	-5	1.3	-0.3
O=S(=O)(NNc1nccc(C(F)(F)F)n1)c1cccc(Cl)c1Cl	-11	5	-3	4	2.0	-3	13	17	4.4	-0.8
CCOCCc1nnc(NC(=O)C(CC)c2ccccc2)s1 (centres undefined)	-1	-3	-9	0	1.3	9	nt	nt	nt	0.0
CC(C)C(NC(=O)c1ccccc1NC(=O)C(C)(C)C)C(=O)N1CCOCC1 (centres undefined)	-1	nt	9	-10	-0.4	nt	3	11	-0.3	-1.3
COCCN1C(=O)N(c2ccc(Cl)cc2)C(=O)C1CC(=O)Nc1cc(OC)cc(OC)c1 (centres undefined)	3	10	3	-6	-3.7	-13	-17	-4	-3.1	0.4
Cc1ccccc1NC(=O)COC(=O)Cc1cccc(C(F)(F)F)c1	1	2	12	-9	-5.1	-15	nt	nt	nt	0.1
COc1ccc(CCN(C)C2CCCN(C(=O)CCSC)C2)cc1OC (centres undefined)	nt	-5	-6	-2	3.8	21	4	9	0.9	0.8
COC(=O)c1ccc(S(=O)(=O)N2CCN(C(c3ccccc3)c3ccccc3)CC2)n1C	-8	2	4	-6	-0.3	30	16	-2	1.1	0.8
Cc1ccc(C2CC2c2n[nH]c(=S)n2-c2ccc(C)cc2)cc1 (centres undefined)	-4	-28	3	36	-1.9	7	-53	-82	-31	0.0
C=CCC1C=C(C)CC(CC=C)N1 (centres undefined)	-6	0	3	2	0.4	-11	8	11	1.0	-0.9
COc1ccc(C(=O)Nc2ccc3[nH]ncc3c2)cc1OC	4	2	-3	0	-4.8	-12	4	0	-1.1	0.1
CCOC(=O)CNC(=O)Nc1ccccc1C(=O)OC	-6	-6	-3	-2	-3.1	-13	nt	nt	nt	-0.3
Cc1cc(Br)c(NC(=O)c2ccccc2[N+](=O)[O-])cc1C	-2	-16	-2	7	-5.7	-2	-12	-13	-1.6	-1.3
COc1cc(NC(=O)CCc2c(C)noc2C)c(Cl)cc1C(=O)O	-5	nt	0	-1	-7.0	nt	5	1	-3.2	0.2
CCOC(=O)C[C@H]1c2cc(C(F)(F)F)ccc2S(=O)(=O)N1C(C)C	-2	0	-5	nt	-8.1	-15	8	20	2.0	-0.1
Cc1cc(C)nc(SCC(=O)NC2=NN=C(c3ccc(Br)cc3)CS2)n1	113*	-5	3	37	3.4	68*	nt	nt	nt	0.0
CCOC(=O)CNC(=S)N(CCCN1CCCCCC1)Cc1cccs1	-9	-32	-1	1	5.2	16	13	5	6.2	0.9
O=C1c2ccccc2NC(c2c(Cl)cccc2Cl)N1Cc1ccccc1 (centres undefined)	-1	9	4	1	-0.7	-5	nt	nt	nt	0.4
CCN(CC)C(=O)CSc1nc2cc3c(cc2c(=O)n1Cc1ccco1)OCO3	6	-15	-4	nt	0.4	17	-2	13	-3.9	0.4
Cc1cccc(NC(=O)C(C)Sc2nc3nc(C)cc(C)n3n2)c1 (centres undefined)	-2	nt	5	-3	-1.4	nt	0	0	5.8	0.7
O=[N+]([O-])c1cc(/C=N/O)ccc1Oc1cccc(Cl)c1	1	37	-1	?	6.4	7	-5	-1	-2.3	0.1
Cc1cc(C)c(S(=O)(=O)c2ccc(F)cc2C)c(Cl)n1	-4	2	-2	nt	-1.4	55*	-2	0	0.5	1.1
O=C(CSc1nnnn1-c1ccccc1)c1ccco1	3	-18	-6	31	-1.2	-13	3	-1	-2.4	0.2
CCN1C(=O)c2ccccc2S(=O)c2ccc(C(=O)N3CCCCCC3)cc21 (centres undefined)	1	-2	-9	nt	8.5	14	5	-7	3.3	-0.4
CCOC(=O)c1ccccc1OCc1cc(/C=N/n2cncn2)ccc1OC	-1	9	-11	-22	4.0	5	nt	nt	nt	-0.7
O=C(COc1ccc(Cc2ccccc2)cc1)c1ccc(F)cc1	6	6	-1	-21	0.1	-13	-5	-9	-8.7	-3.1
CN(C)CCCN(C(=O)c1cccc(N2C(=O)CCC2=O)c1)c1nc2cc3c(cc2s1)OCO3	-3	3	16	4	0.6	50	17	10	-0.9	-0.2
Cc1cc(CN2CCC(N3CCC(C(=O)NC4CC4)CC3)CC2)cc(C)c1O	nt	1	-8	24	-8.9	3	23	20	0.5	-0.3
CCOC(=O)c1c(NC(=O)C2CCCO2)sc2c1CCC2 (centres undefined)	4	-7	3	9	1.3	10	nt	nt	nt	-0.3
O=C(NCc1ccncc1)c1ccc(OCc2ccccc2)cc1	1	0	2	nt	-1.5	-7	-20	-16	-3.3	0.1
COc1ccc(NC(=O)CSc2nccn2-c2ccccc2)c(OC)c1	-2	10	-6	47	-5.7	4	nt	nt	nt	0.0
O=C(c1cccc(F)c1)N1CCc2ccccc21	-9	-9	-3	-2	-4.0	-32	4	3	-3.2	-0.1
COc1cccc(-c2cc(C(=O)Nc3cnn(Cc4ccccc4C)c3)no2)c1	-3	-26	12	-1	0.9	6	nt	nt	nt	0.4
CN(CC(=O)Nc1ccccc1Cl)C(=O)c1cc(=O)[nH]c2ccccc12	3	-6	8	-3	-7.3	2	-1	4	-1.7	1.0

Next part:
SMILES	Beta cell apopt	Calb FLC	Beta2AR agonist	ALR inh	LANA-H2A inh	T cruzi repl	Ecoli rRNA inh	Ecoli rRNA inh OD600	Ecoli rRNA inh RFP	Bfl-1 A1 inh
Cc1ccc(C)c(CN2CCC(CNC(=O)Nc3ccc(Br)cc3F)CC2)c1	7	7	28	-15	1.3	23	-7	-51	25	0.3
COc1ccc(C(=O)NC(Nc2ccc(C)cc2)C(Cl)(Cl)Cl)cc1 (centres undefined)	25	-57	1	46	-3.1	-41	nt	nt	nt	-0.3
CCCCNC(=O)OC(C)CNC(=O)Oc1cccc(C)c1 (centres undefined)	-1	4	-7	4	-10	4	nt	nt	nt	-0.5
COc1ccc(-c2nc3ccc(C(=O)NCC(OC)OC)cc3nc2-c2ccc(OC)cc2)cc1	-9	36	-5	-1	0.8	15	-15	2	11	0.1
C(=N\n1cnnc1)/c1ccccn1	-1	?	3	-8	-7.7	-4	nt	nt	nt	-0.3
Cc1ccc(OC(=O)c2ccc(N3CCOCC3)c([N+](=O)[O-])c2)cc1	-8	2	3	-1	2.7	-8	nt	nt	nt	0.0
O=C(c1ccco1)N1CCN(C(=O)c2cnn(-c3ccc(Cl)cc3)c2C2CCNCC2)CC1	1	-9	-1	1	7.8	-21	20	11	3.0	-0.1
CC(C)c1ccc(NC(=O)COC(=O)c2c[nH]c(=O)[nH]c2=O)cc1	nt	13	-1	-7	0.5	-11	5	17	14	-0.1
O=C(NCCc1ccc(F)cc1)C1CCCO1 (centres undefined)	-2	-3	5	-4	-0.3	-6	11	11	-2.2	-0.3
CN(Cc1ccccn1)C(=O)C1CCC(=O)N(Cc2cccc(F)c2)C1 (centres undefined)	-1	0	-1	-7	4.2	-4	17	18	0.4	-0.1
O=C1CN(C(=O)/C=C/c2cccc(Cl)c2)c2ccccc2N1	7	-8	-19	-5	-4.6	2	-41	-63	-0.2	0.4

This is a subset; the hit share may differ from the screen's.
